# FGF22 binding – FGF22 (human) thermal shift binding. Q9HCT0. recombinant FGF22 thermal shift, SYPRO orange fluorescence; percent of sucrose octasulfate shift, DMSO zero. calls only at 9.99 µM. hit rate 1.5% among 340,000;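 active means melting point raised past a set limit in the mean and every replicate; three in four hits are not shown here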
# Target sequence (Q9HCT0 whole entry, looked up): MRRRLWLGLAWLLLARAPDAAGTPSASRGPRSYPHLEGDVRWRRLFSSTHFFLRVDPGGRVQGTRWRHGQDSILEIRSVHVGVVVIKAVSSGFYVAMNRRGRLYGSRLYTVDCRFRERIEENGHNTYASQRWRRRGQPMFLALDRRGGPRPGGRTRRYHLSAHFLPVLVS
# rRNA inh HTS – inhibitors of bacterial rRNA selective over humanized ribosomes; hit rate 1.6% among 350,000; E. coli WT GFP vs humanized-ribosome RFP mutants, fluorescence, 24 h; active compounds read low; DMSO median 0, no signal -100; GFP signal change (wild-type ribosome), % (concentration not given with the values);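 active means significant combined selectivity score with lowered wild-type GFP, culture density cut under 30%, mutant RFP and density less affected; inactive means any of these conditions unmet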; further: one replicate is shown; some compounds called inactive have numbers as strong as hits
# AF4-AF9 inh – blocks AF4 peptide binding to human AF9. P42568. AlphaScreen, biotin-AF4 peptide binding to FLAG-AF9. inhibition, % at 10 µM. hit rate 0.47% among 350,000;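 active means every replicate reaching a set inhibition limit, whatever the replicate mean, cut at about 25% in these data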;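 further: 0% = plate neutral control median and 100% = total signal loss; the record names both 10 and 1 µM as test concentration; the first replicate is given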
# Target sequence (P42568 whole entry, looked up): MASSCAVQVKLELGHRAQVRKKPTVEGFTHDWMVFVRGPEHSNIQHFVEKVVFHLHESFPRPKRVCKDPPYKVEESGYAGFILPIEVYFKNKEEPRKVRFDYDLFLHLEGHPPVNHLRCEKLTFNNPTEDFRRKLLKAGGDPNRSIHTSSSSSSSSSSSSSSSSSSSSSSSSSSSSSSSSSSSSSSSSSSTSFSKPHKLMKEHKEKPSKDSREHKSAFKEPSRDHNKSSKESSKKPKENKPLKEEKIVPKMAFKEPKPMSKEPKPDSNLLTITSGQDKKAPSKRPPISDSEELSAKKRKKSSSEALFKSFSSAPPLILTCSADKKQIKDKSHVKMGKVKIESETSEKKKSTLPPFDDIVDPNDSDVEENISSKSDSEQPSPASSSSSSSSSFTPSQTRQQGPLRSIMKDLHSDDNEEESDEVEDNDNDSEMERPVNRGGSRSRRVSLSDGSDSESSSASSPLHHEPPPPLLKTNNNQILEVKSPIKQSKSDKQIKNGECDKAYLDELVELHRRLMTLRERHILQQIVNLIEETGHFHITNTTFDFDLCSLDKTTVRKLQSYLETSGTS
# rRNA inh HTS OD600 – also measured in rRNA inh HTS; calls as there; OD600 change, %; measured here: OD600 growth;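 optical density of the mix in the first replicate; 0 = DMSO median and -100 = no signal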
# rRNA inh HTS RFP – second read-out of rRNA inh HTS, no call of its own (marks repeat the call); RFP signal change, %; measured here: RFP humanized mutant strains;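 first replicate; 0 = DMSO median and -100 = no signal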
# * marks the source's active call; other numbers are inactive results; i = inactive; & = joins results of further samples. Not all compounds are listed (hit frequency here may not be typical).
FGF22 binding,rRNA inh HTS,rRNA inh HTS OD600,rRNA inh HTS RFP,structure,AF4-AF9 inh
i,-7,-4,7.6,O=C(CSc1ncn[nH]1)N1N=C2/C(=C\c3ccco3)CCCC2C1c1ccco1 (stereo not given),5.3
i,2,8,-0.5,Cc1cc(C(=O)Nc2cccc3c2O[C@H](CN(C)CC2CC2)[C@H](C)CN([C@@H](C)CO)C3=O)n(C)n1,-1.5
i,5,10,-2.2,CCC(=O)Nc1ccc2c(c1)C(=O)N(C)C[C@@H](OC)[C@@H](C)CN(CC1CCCCC1)[C@@H](C)CO2,0.4
i,-11,-15,-0.8,Cc1cc(C(=O)Nc2cccc3c2O[C@@H](CN(C)S(=O)(=O)c2ccc(Cl)cc2)[C@@H](C)CN([C@H](C)CO)C3=O)n(C)n1,-0.8
i,-1,-2,-1.3,COC(=O)C[C@H]1CC[C@H]2[C@@H](COc3ccc(NC(=O)c4cc(C)on4)cc3C(=O)N2C)O1,-2.6
i,3,1,1.0,CC(=O)OC[C@@H]1CN(Cc2ccccc2)C[C@H](n2cnc3c(NC4CC4)ncnc32)O1,1.1
i,-3,-1,0.8,Cc1ccc(S(=O)(=O)N(C)C[C@@H]2Oc3ccc(NC(=O)C4CCCCC4)cc3C(=O)N([C@@H](C)CO)C[C@@H]2C)cc1,-13
i,2,-1,0.2,COCC(=O)Nc1ccc2c(c1)C(=O)N(C)[C@@H]1CC[C@@H](CC(=O)NC3Cc4ccccc4C3)O[C@@H]1CO2,0.3
i,-1,-3,7.9,COc1ccc(S(=O)(=O)Nc2ccc3c(c2)C(=O)N([C@@H](C)CO)C[C@H](C)[C@@H](CN(C)S(=O)(=O)c2cccs2)OCCCC[C@H](C)O3)cc1,1.6
i,3,9,-0.2,CN(C[C@H]1[C@@H](c2ccccc2)[C@@H](CO)N1Cc1ccccn1)S(C)(=O)=O,-0.3

# (next part)
FGF22 binding,rRNA inh HTS,rRNA inh HTS OD600,rRNA inh HTS RFP,structure,AF4-AF9 inh
i,5,16,3.9,Cc1cc(/C=N/NC(=O)c2ccoc2C)cc(C)c1O,0.7
i,-2,-31,10,O=C(Nc1cc(F)ccc1F)N1CCCCN2[C@H](CO)[C@H](c3ccc(-c4ccccc4)cc3)[C@@H]2C1,-6.1
i,-26,-43,-8.9,CCCn1cnc2c(SCc3ccccc3F)nc(N)nc21,5.9
i,-2,6,-1.7,C[C@@H]1CN([C@@H](C)CO)C(=O)c2c(c3ccccc3n2C)-c2ccccc2CO[C@H]1CN(C)S(C)(=O)=O,-2.1
i,0,-9,-2.1,C[C@@H]1CN([C@H](C)CO)C(=O)c2cc(NC(=O)C3CCCCC3)ccc2O[C@@H]1CN(C)Cc1ccccc1,-3.5
i,-4,7,-3.2,CC(=O)NC[C@@H]1[C@H](c2ccc(-c3ccccc3)cc2)[C@H](CO)N1C(=O)C1CCC1,0.4
i,-8,-9,-0.3,CC(C)CC#Cc1ccc2c(c1)O[C@H](CN(C)C(=O)NC(C)C)[C@H](C)CN([C@@H](C)CO)S2(=O)=O,0.6
i,-3,-1,-0.7,O=c1[nH]c2ccccc2nc1-c1nnnn1C1CCCC1,-0.5
i,-1,-4,4.2,COc1ccc(NC(=O)Nc2ccc3c(c2)C(=O)N([C@H](C)CO)C[C@@H](C)[C@@H](CN(C)Cc2ccncc2)OCCCC[C@@H](C)O3)cc1,8.6
i,-1,-4,-0.7,C[C@H]1CN([C@@H](C)CO)C(=O)c2cc(Br)cnc2O[C@@H]1CN(C)C(=O)C1CCCCC1,0.0

# Reformatted: four of the compounds above.
> CCCn1cnc2c(SCc3ccccc3F)nc(N)nc21
  FGF22 binding = i	rRNA inh HTS = -26	rRNA inh HTS OD600 = -43	rRNA inh HTS RFP = -8.9	AF4-AF9 inh = 5.9

> C[C@@H]1CN([C@@H](C)CO)C(=O)c2c(c3ccccc3n2C)-c2ccccc2CO[C@H]1CN(C)S(C)(=O)=O
  FGF22 binding = i	rRNA inh HTS = -2	rRNA inh HTS OD600 = 6	rRNA inh HTS RFP = -1.7	AF4-AF9 inh = -2.1

> C[C@@H]1CN([C@H](C)CO)C(=O)c2cc(NC(=O)C3CCCCC3)ccc2O[C@@H]1CN(C)Cc1ccccc1
  FGF22 binding = i	rRNA inh HTS = 0	rRNA inh HTS OD600 = -9	rRNA inh HTS RFP = -2.1	AF4-AF9 inh = -3.5

> CC(=O)NC[C@@H]1[C@H](c2ccc(-c3ccccc3)cc2)[C@H](CO)N1C(=O)C1CCC1
  FGF22 binding = i	rRNA inh HTS = -4	rRNA inh HTS OD600 = 7	rRNA inh HTS RFP = -3.2	AF4-AF9 inh = 0.4

# Compounds above containing an NH in an aromatic ring (two):
FGF22 binding,rRNA inh HTS,rRNA inh HTS OD600,rRNA inh HTS RFP,structure,AF4-AF9 inh
i,-7,-4,7.6,O=C(CSc1ncn[nH]1)N1N=C2/C(=C\c3ccco3)CCCC2C1c1ccco1 (stereo not given),5.3
i,-3,-1,-0.7,O=c1[nH]c2ccccc2nc1-c1nnnn1C1CCCC1,-0.5

# More records follow:
FGF22 binding,rRNA inh HTS,rRNA inh HTS OD600,rRNA inh HTS RFP,structure,AF4-AF9 inh
i,1,3,0.5,CCCN(C)C[C@@H]1OCc2cn(nn2)CCCC(=O)N([C@@H](C)CO)C[C@@H]1C,-2.2
i,-3&-3,-20&-5,12&7.6,COc1cccc(-c2ccc3c(c2)O[C@H](CN(C)C(=O)c2ccccc2F)[C@H](C)CN([C@H](C)CO)S3(=O)=O)c1,3.1&0.9&0.3
i,11,-2,-1.3,O=C(Nc1ccccc1)N1C[C@@H]2[C@H](c3ccccc31)[C@H](CO)N2C(=O)c1ccncc1,-12
i,-1,-2,-1.0,CC(C)NC(=O)NCC[C@@H]1CC[C@H](NC(=O)CCN2CCCCC2)[C@H](CO)O1,2.2
i,1,-2,1.1,Cc1ccc(S(=O)(=O)Nc2ccc3c(c2)CC(=O)N([C@H](C)CO)C[C@H](C)[C@@H](CN(C)C(=O)Nc2cccc4ccccc24)O3)cc1,1.1
i,-7,-5,-2.0,CC(C)NC(=O)Nc1cccc2c1O[C@@H](CN(C)Cc1ccccc1)[C@H](C)CN([C@@H](C)CO)C2=O,-0.7
i,2,-3,-3.4,COc1ccc(NC(=O)Nc2ccc3c(c2)C(=O)N([C@H](C)CO)C[C@H](C)[C@H](CN(C)C(=O)c2ccccc2)OCCCC[C@@H](C)O3)cc1,-1.7
i,-32,-33,-5.5,COc1ccccc1-c1noc(CCC(=O)N2CCN(c3cc(C)ccc3C)CC2)n1,-2.4
i,15,15,-2.8,Fc1ccc2nc(-c3ccccc3)ccc2c1,0.5
i,-1,10,-1.1,O=C(C[C@H]1CC[C@H](NC(=O)Nc2ccc(C(F)(F)F)cc2)[C@H](CO)O1)NCCN1CCCC1,4.4

# Following part.
FGF22 binding,rRNA inh HTS,rRNA inh HTS OD600,rRNA inh HTS RFP,structure,AF4-AF9 inh
i,0,-25,11,N#C[C@@H]1[C@@H](c2ccc(C#Cc3ccc(F)cc3)cc2)[C@H](CO)N1C(=O)C1CCC1,-6.1
i,-9,-15,1.2,CCS(=O)(=O)N1CC2(CN(Cc3cccc(Cl)c3)[C@H](CO)c3c2c2ccc(OC)cc2n3C)C1,11
i,-2,0,1.0,COc1ccc(NC(=O)N[C@@H]2CC[C@H](CC(=O)NC3CCCCC3)O[C@H]2CO)cc1,-0.8
i,0,5,-1.3,CN1C(=O)c2cc(NC(=O)c3ccccc3Cl)ccc2OC[C@H]2O[C@@H](CC(=O)O)CC[C@H]21,-1.6
i,2,-5,-2.2,C[C@@H]1CN([C@H](C)CO)C(=O)c2cc(C#CC3CC3)cnc2O[C@@H]1CN(C)C(=O)Nc1ccc(F)cc1,1.5
i,-3,-3,-0.8,CC(=O)Nc1ccc(NC(=O)COc2cccc3ccccc23)cc1,1.1
i,4,9,2.9,CO[C@H]1CC[C@@H]2CCN(C)C(=O)[C@H](C)N(C)C(=O)c3cccc(C#N)c3OC[C@@H]1O2,-1.1
i,-3,-3,-4.6,CC(=O)N(C)C[C@H]1Oc2ncc(-c3ccc(F)cc3)cc2C(=O)N([C@H](C)CO)C[C@@H]1C,-5.3
i,16,18,-0.9,O=C1C2C3C=CC(O3)C2C(=O)N1Nc1ccccc1 (stereo not given),-0.8
i,0,7,0.0,CN(C[C@H]1N[C@@H](CO)[C@H]1c1ccc(-c2cccc(F)c2)cc1)S(C)(=O)=O,1.2

# Next part
FGF22 binding,rRNA inh HTS,rRNA inh HTS OD600,rRNA inh HTS RFP,structure,AF4-AF9 inh
i,-4,0,-0.2,Cc1ccccc1-c1ccc2c(c1)O[C@@H](CN(C)C(=O)Nc1ccccc1)[C@@H](C)CN([C@H](C)CO)S2(=O)=O,1.2
i,-4,-33,-8.0,Cn1ccc2c(N3CCCCC3)cc3c(c21)C1CCC3C1 (stereo not given),52*
i,0,10,0.9,CC1CN(C(=O)COC(=O)c2cc(=O)[nH]c3ccccc23)CC(C)O1 (stereo not given),-1.6
i,2,-1,-1.5,COc1ccc(NC(=O)N(C)C[C@H]2Oc3c(NC(=O)C4CC4)cccc3C(=O)N([C@H](C)CO)C[C@H]2C)cc1,-1.0
i,-45,-71,-16,Oc1ccccc1C=NNC(=S)NN=Cc1ccccc1O,-1.1
i,-1,20,-2.2,COc1ccccc1-c1cnc2c(c1)C(=O)N([C@H](C)CO)C[C@H](C)[C@@H](CN(C)Cc1cccnc1)O2,-1.2
i,1,-1,-2.9,COCC#Cc1ccc2c(c1)O[C@H](CN(C)C(C)=O)[C@@H](C)CN([C@@H](C)CO)S2(=O)=O,-3.2
i,0,-1,2.9,Cc1ccc(S(=O)(=O)N(C)C[C@H]2OCCCC[C@@H](C)Oc3ccc(NS(=O)(=O)c4ccccc4)cc3C(=O)N([C@H](C)CO)C[C@H]2C)cc1,0.3
i,0,-2,-0.6,CCCN1C[C@H](C)[C@H](OC)CN(C)C(=O)c2ccc(NC(=O)Nc3ccccc3F)cc2OC[C@@H]1C,-0.4
i,0,-2,-2.6,Cc1ccccc1S(=O)(=O)NCC[C@@H]1CC[C@H](NC(=O)C2CC2)[C@H](CO)O1,-0.5

# (further entries)
FGF22 binding,rRNA inh HTS,rRNA inh HTS OD600,rRNA inh HTS RFP,structure,AF4-AF9 inh
i,-4,-4,-1.1,O=C(NCC1CC1)[C@H]1[C@H](CO)[C@H]2Cn3c(ccc(/C=C/c4ccccc4)c3=O)[C@@H]1N2C(=O)C1CC1,-9.8
i,-2,-3,-0.9,CCC(=O)N[C@@H]1CC[C@@H](CC(=O)NCc2ccccc2F)O[C@H]1CO,-0.6
i,-5,-4,-1.0,Cc1ccc(S(=O)(=O)N[C@H]2C=C[C@H](CC(=O)N3CCN(c4ccccc4)CC3)O[C@H]2CO)cc1,0.0
i,-4,-17,4.4,CO[C@@H]1CN(C)C(=O)c2ccc(NC(=O)C3CC3)cc2OC[C@@H](C)N(Cc2ccc(F)cc2)C[C@H]1C,3.9
i,0,-1,-4.8,O=C(c1ccccc1F)N1CC2(C1)[C@H](c1ccccc1)[C@@H](CO)N2CC1CC1,-0.4
i,0,-31,-1.8,Nc1nc(SCc2ccccc2Cl)c2ncn(C3OC(CO)C(O)C3O)c2n1 (stereo not given),1.1
i,-7,-14,5.1,CO[C@@H]1CN(C)C(=O)c2ccc(NC(=O)C3CC3)cc2OC[C@H](C)N(Cc2cc(F)ccc2F)C[C@H]1C,4.4
i,-6,3,-7.5,O=S(=O)(c1ccccc1)N1CC[C@@H]2[C@H](CO)Nc3ccc(C#Cc4cccc(F)c4)cc3[C@@H]21,-2.4
i,-56,-79,-19,CNC[C@@H]1OCCCC[C@H](C)Oc2ccc(NC(=O)Nc3ccc(C(F)(F)F)cc3)cc2C(=O)N([C@@H](C)CO)C[C@@H]1C,7.1
i,-5,-3,-1.2,CN1C(=O)c2cc(NC(=O)c3ccccc3F)ccc2OC[C@H]2O[C@@H](CC(=O)NCc3ccc4c(c3)OCO4)CC[C@@H]21,1.6

# Other structures follow:
FGF22 binding,rRNA inh HTS,rRNA inh HTS OD600,rRNA inh HTS RFP,structure,AF4-AF9 inh
i,4,0,-3.0,O=C(C[C@H]1C[C@H]2c3cc(NC(=O)NC4CCCC4)ccc3O[C@H]2[C@@H](CO)O1)NCc1ccccc1,-1.5
i,0,-3,-1.1,COc1ccc(CN(C)C[C@H]2Oc3c(NS(=O)(=O)c4ccc(F)cc4)cccc3C(=O)N([C@H](C)CO)C[C@@H]2C)cc1,-0.2
i,-1,6,-1.3,C[C@H](NC(=O)C[C@@H]1CC[C@H](NC(=O)C2CC2)[C@H](CO)O1)c1ccccc1,0.9
i,2,4,1.2,Cc1ccc(S(=O)(=O)Nc2ccc3c(c2)C(=O)N([C@H](C)CO)C[C@@H](C)[C@@H](CN(C)C(=O)Nc2c(C)noc2C)O3)cc1,1.4
i,1,3,-0.3,C[C@H](CO)N1C[C@H](C)[C@@H](CN(C)C(=O)Nc2ccc(C(F)(F)F)cc2)Oc2ccc(NC(=O)Nc3ccc4c(c3)OCO4)cc2CC1=O,8.8
i,0,14,-0.3,O=C(CSc1nc2ccc([N+](=O)[O-])cc2s1)c1ccc2ccccc2c1,-4.7
i,20,25,1.4,O=Cc1cn(-c2ccccc2)nc1-c1cccc([N+](=O)[O-])c1,-1.5

# Assay outcomes from PubChem BioAssay.
